Screening results (PubChem BioAssay)
Mtb bLac sens: beta-lactam sensitization of Mtb H37Rv, H37Rv; AID 434955, 2010; M. tuberculosis H37Rv growth with meropenem, percent inhibition; hits of this screen are not shown here; inhibition, % at 25 µM; 330,000 tested, 0.27% active;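 active means about 74% or more and at least 40 points above the plate without the antibiotic, then above 30% in a dose series; inconclusive means first-round hits that could not be retested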;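 further: growth measured after seven days incubation then overnight dye step; 0% = bacteria only wells and 100% = bacteria with antibiotic; twin plates without the antibiotic show which effects depend on it; some results filed as inactive read as strong as hits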
Mtb growth: M. tuberculosis H37Rv growth inhibitors, H37Rv strain (AID 1626). M. tuberculosis H37Rv growth inhibition; higher % means a stronger effect. inhibition, % at 10 µM; hits with a dose series show IC50 in µM. 220,000 tested, 0.95% active;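 active means confirmed in a dose series; inconclusive means inhibition above 80% but not taken into the dose series; inactive means below 80% or under 30% at every dose of the series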;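 further: bacteria incubated seven days before Alamar blue readout; 0% = bacteria only wells and 100% = bacteria with antibiotic wells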
YopH inh: YopH tyrosine phosphatase inhibitors, primary screen, biochemical, fluorescence Ex485/Em525 | 140,000 tested, 0.16% active | YopH tyrosine phosphatase [Yersinia enterocolitica] | inhibition, %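 (about 10 µM by stock and volumes)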;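 active means inhibition of 50% or more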;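 further: controls were vehicle for no effect and minimum signal wells for full effect; inactives centre near -20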
RecA intein inh: Mtb RecA intein splicing inhibitors, primary screen, biochemical, fluorescence, HTS; 290,000 tested, 0.75% active; Protein RecA (Mycobacterium tuberculosis (strain ATCC 25618 / H37Rv)), P9WHJ3; cell-free RecA intein splicing; inhibition, %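 (about 9 µM by stock and volumes)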; AID 2221, 2009; in the data active means inhibition above about 30%; inconclusive means no clear call, values can overlap the other calls;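 further: 0% = vehicle wells and 100% = reference inhibitor control wells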
Target sequence (P9WHJ3 whole entry, looked up): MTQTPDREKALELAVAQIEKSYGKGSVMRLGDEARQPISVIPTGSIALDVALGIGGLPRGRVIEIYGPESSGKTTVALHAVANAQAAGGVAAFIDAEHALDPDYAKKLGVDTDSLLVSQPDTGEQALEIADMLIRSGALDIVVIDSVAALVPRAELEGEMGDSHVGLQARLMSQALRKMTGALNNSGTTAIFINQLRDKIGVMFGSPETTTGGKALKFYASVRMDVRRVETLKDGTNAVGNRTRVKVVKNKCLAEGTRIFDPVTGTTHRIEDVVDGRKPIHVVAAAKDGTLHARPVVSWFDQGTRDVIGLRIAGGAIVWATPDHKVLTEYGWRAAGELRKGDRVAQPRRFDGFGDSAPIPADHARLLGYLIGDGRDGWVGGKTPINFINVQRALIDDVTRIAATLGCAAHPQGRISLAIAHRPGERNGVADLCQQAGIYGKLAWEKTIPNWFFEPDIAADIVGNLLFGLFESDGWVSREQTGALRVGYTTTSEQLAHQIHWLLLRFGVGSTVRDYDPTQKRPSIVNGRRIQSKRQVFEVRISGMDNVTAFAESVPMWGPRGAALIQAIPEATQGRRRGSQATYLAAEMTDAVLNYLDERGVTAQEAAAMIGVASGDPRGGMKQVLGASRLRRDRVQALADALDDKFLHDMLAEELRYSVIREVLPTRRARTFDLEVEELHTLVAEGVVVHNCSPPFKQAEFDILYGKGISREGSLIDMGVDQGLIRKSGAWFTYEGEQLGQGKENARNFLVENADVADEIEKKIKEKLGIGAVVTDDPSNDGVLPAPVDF
Arbovirus inh: antivirals against arbovirus infection, primary screen, cell-based, full library, 10K replicate subset | arbovirus infection cell-based antiviral screen | inhibition, % at 10 µM | 200,000 tested, 0.37% active;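 active means inhibition from about 30%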;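 further: bluetongue infection of BSR cells; cell survival read as ATP light after 72 h; 0% = infected wells without compound and 100% = uninfected wells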
Arbovirus inh repeat: recorded beside Arbovirus inh, whose call it bears; inhibition, %; measured here: 10K subset replicate screen; many hits read low in the repeat;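 first of two repeat runs on a subset; 0% = infected and 100% = uninfected wells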
* marks the source's active call; other numbers are inactive results; ? = inconclusive; . = no result given; & = joins results of further samples. Only part of the results is shown (hit frequency here may not be typical).

SMILES	Mtb bLac sens	Mtb growth	YopH inh	RecA intein inh	Arbovirus inh	others
COc1cc2c(cc1OC)C(C(=O)NCc1ccco1)C1c3ccccc3CCN1C2=O (configuration not stated)	-9.1	-11.2%	-36.0	-0.2	2.4
CCOc1ccc(NC(=O)c2cccc3c2C(=O)N(CC2CCCO2)C3)cc1 (configuration not stated)	3.5	.	.	-3.4	.
CNC(=S)N1N=C(c2ccccc2)CC1c1ccc(OC)c(OC)c1 (configuration not stated)	0.6	-4.8%	-6.9	-1.2	3.5
CCCCSc1nnc(-c2ccc(NC(=O)CCc3ccccc3)cc2)n1C	-11.1	-5.8%	29.2	-0.8	-8.7
COc1cc(C2C(C#N)=C(N)Oc3cc(C)n(CCc4ccccc4)c(=O)c32)cc2c1OCO2 (configuration not stated)	-7.7	4.1%	-1.5	.	-1.2
O=C(NCc1ccccc1)c1ccc(NC2=NC3CS(=O)(=O)CC3S2)cc1 (configuration not stated)	-1.6	.	.	0.3	.
CC(=O)Nc1ccccc1OC(=O)N(C)C	2.5	-7.6%	-21.3	.	8.2
Cc1cc(Nc2nc3ccccc3nc2Cl)n(-c2ccc([N+](=O)[O-])cc2)n1	-2.4	-5.5%	-11.2	0.8	11.7
COc1ccc(CN2CCN(C(=O)CC(C)C)CC2)cc1OC	-8.8	-12.3%	-42.4	0.5	10.3
CC(=O)Nc1ccc(N2C(=O)CC(Sc3nc(C)cc(C)n3)C2=O)cc1 (configuration not stated)	1.3	.	.	-1.2	.
N#CC1=C(N)Oc2n[nH]c(-c3ccncc3)c2C1c1ccsc1 (configuration not stated)	-16.1	-1.9%	-0.2	53.8*	3.8
CCCCOP(=O)(c1ccc(N(C)C)cc1)C(O)c1ccncc1 (configuration not stated)	4.3	-11.6%	-23.3	-1.3	-0.4
Cc1ccc(CSc2nnc(CCNC(=O)OC(C)(C)C)o2)cc1	-6.6	8.0%	.	-0.8	.
Nc1ccc2c(c1Cl)C(=O)c1ccc(N)c(Cl)c1C2=O	.	-5.7%	.	7.4	.
COCCN(Cc1cc2cc(C)ccc2[nH]c1=O)S(=O)(=O)c1ccc(Cl)cc1	5.0	.	.	1.0	.
CCOC(=O)N1CCN(c2ncc(C(F)(F)F)cc2Cl)CC1	1.6	2.6%	.	0.2	4.3
COc1cc2[nH]c(=S)nc(NCc3ccc(Cl)cc3)c2cc1OC	-7.1	.	.	7.3	.
CCS(=O)(=O)Nc1ccc(-c2ccc(NS(=O)(=O)CC)c(OC)c2)cc1OC	16.3	-3.5%	21.6	0.2	1.9	Arbovirus inh repeat=-1.4
C/C(=N\NC(=O)COc1ccc2ccccc2c1)c1cccs1	-0.8	.	.	-0.4	.
CNc1nc(SC)nc(N(C)C#N)n1	2.9	1.9%	.	-1.3	-1.8
Cc1ccc(CCNC(=O)c2cccc(N3CCCC3=O)c2)cc1	-1.4	.	.	-5.4	.
O=S1(=O)c2ccccc2Nc2ccccc21	6.1	.	.	-1.3	.
O=P(O)(CCc1ccccc1)C(O)c1ccccc1 (configuration not stated)	9.2	-2.8%	21.7	-0.7	2.1
O=C(Nc1ccc(S(=O)(=O)N2CCCCC2)cc1)C1CC1	4.4	.	.	1.3	.
COc1cccc(CNC(=O)CCS(=O)(=O)c2cc3c(cc2C)NC(=O)CO3)c1	-5.6	.	.	4.0	.
COC(=O)c1cc2n3ccccc3c(C)c(-c3ccccc3)c-2c1C(=O)OC	-16.6	-7.1%	-12.3	0.6	3.9
Cc1ccc(S(=O)(=O)c2nc(S(=O)(=O)CCO)sc2N2CCOCC2)cc1	2.1	.	.	-1.4	.
NC(=O)c1sc2nccc(Nc3ccccc3)c2c1N	36.2	-16.8%	-22.4	13.1	14.6
O=C(OC(c1ccccc1)c1nccc2ccccc12)c1cccc([N+](=O)[O-])c1 (configuration not stated)	5.0	2.3%	-21.7	15.9	7.3
Cc1cc(=O)[nH]c(N/N=C/C2=C(N3CCOCC3)C(=C\c3ccc(Cl)cc3)/CC2)n1	80.7	?	-21.9	-1.7	-25.1
O=C(CCC1CCN(C(=O)c2ccco2)CC1)NCc1ccc(F)cc1	?	.	.	0.7	.
O=C(Nc1cc([N+](=O)[O-])ccc1C(=O)Nc1cccnc1)c1ccccc1	-12.5	.	.	-0.6	.
COc1cc(NC(=O)c2ccc3c(c2)OCO3)c2ncccc2c1	7.1	0.2%	-31.8	-1.8	-7.8
C=CCN=Cc1c(C)[nH]n(-c2ccccc2)c1=O	-2.0	-7.5%	.	0.0	5.1
CC(C)N(Cc1ccccc1)C(=O)c1ccc2nsnc2c1	-9.7	1.7%	.	0.9	.
COCCNC(=S)N(Cc1cccs1)Cc1cc2cccc(C)c2[nH]c1=O	-6.6	.	.	-2.2	-3.1
CC[C@H](C)[C@@H](C(=O)N1CCNCC1)n1cc([C@@H](N)Cc2ccc(O)cc2)nn1	-6.8	-7.6%	.	-3.3	4.3
Cc1cc(C)c(OCC(=O)Nc2cccc(O)c2)cc1C	9.0	3.2%	-24.2	-0.4	7.5
Nc1cc(N)nc(SCC(=O)N2CCN(C(=O)c3ccco3)CC2)n1	2.3	-8.1%	-13.0	-1.2	6.1
CC[C@H](C)C(=O)O[C@H]1C[C@@H](C)C=C2C=C[C@H](C)[C@H](CC[C@@H]3C[C@@H](O)CC(=O)O3)[C@H]21	-0.5&-7.3	-5.0%	-40.1	-1.1	4.2
O=C(NNC(=O)c1ccc2ccccc2c1O)c1ccccc1Cl	-6.2	2.1%	1.3	34.6*	-13.6
CCCn1c(NCc2ccc(N(C)C)cc2)nc2ccccc21	-1.7	4.4%	7.5	-0.6	6.2	Arbovirus inh repeat=7.0
CC1=Nc2ccccc2NC(=O)C1Sc1nnc(C)s1 (configuration not stated)	8.2	-5.3%	-7.5	-2.5	5.6
Cc1ccc(NC(=O)c2ccc(NCc3ccco3)c([N+](=O)[O-])c2)cc1Cl	-1.7	-1.6%	-1.8	7.6	-1.5
C=CCc1ccc(OCCCCN2CC(C)OC(C)C2)c(OC)c1 (configuration not stated)	1.4	2.4%	-8.3	-0.1	-7.0
CCCN(CC(=O)Nc1cc(C)on1)S(=O)(=O)c1cccc(C(F)(F)F)c1	14.7	8.4%	.	-2.1	0.9
Cc1ccsc1C(=O)NNC(=O)COc1ccccc1Cl	-3.5	.	.	1.4	.
Cc1ccc(S(=O)(=O)Nc2c(C)nn(C)c2C)cc1	2.5	-4.0%	-15.1	.	-3.8
CC(=O)Nc1cccc(OC(=O)c2ccoc2C)c1	-2.5	2.4%	15.8	3.6	5.8
Cc1ccc(-c2nnc(N3CCCCC3)c3ccccc23)cc1	6.8	24.1%	.	1.6	.
Cc1ccc(NC(=O)C2CC(O)CN2C(=O)OCc2ccccc2)c(C)c1 (configuration not stated)	-2.2	.	.	-0.3	.
COc1ccc(CCNC(=O)c2cccc([N+](=O)[O-])c2)cc1OC	-9.7	.	.	-0.1	.
C=CCC(C=C)S(=O)(=O)c1ccc(C)cc1 (configuration not stated)	-4.3	-5.0%	-11.0	-1.2	3.1
CCc1ccc(C2=NN(CCC(=O)NCC3CCCO3)C(=O)CC2)cc1 (configuration not stated)	-4.0	.	.	0.0	.
CCOC(=O)Nc1nc(-c2ccccc2)c(C(=O)c2ccc(Cl)cc2)s1	-1.4	13.3%	-17.5	18.0	-24.4
Cc1onc(-c2ccccc2)c1C(=O)NCc1cccs1	1.7	1.7%	1.4	-2.1	-7.6
CSc1oc(-c2ccco2)nc1S(=O)(=O)c1ccc(C)cc1	9.6	.	.	-0.3	.
COC(=O)CC1SC(=O)NC1=Nc1ccc(C)cc1 (configuration not stated)	0.0	-10.0%	-27.9	-2.6	12.8
O=C(NC1CCCC1)C(=O)N(Cc1cccnc1)C(C(=O)NCc1ccco1)c1ccccc1F (configuration not stated)	1.9	0.1%	.	-1.8	0.0
CCCN1/C(=C2/SC(=S)N(CC)C2=O)C=Cc2ccccc21	6.8	-0.3%	-8.2	1.8	-0.7

Molecules from the list above that have fluorine:
SMILES	Mtb bLac sens	Mtb growth	YopH inh	RecA intein inh	Arbovirus inh	others
CCOC(=O)N1CCN(c2ncc(C(F)(F)F)cc2Cl)CC1	1.6	2.6%	.	0.2	4.3
O=C(CCC1CCN(C(=O)c2ccco2)CC1)NCc1ccc(F)cc1	?	.	.	0.7	.
CCCN(CC(=O)Nc1cc(C)on1)S(=O)(=O)c1cccc(C(F)(F)F)c1	14.7	8.4%	.	-2.1	0.9
O=C(NC1CCCC1)C(=O)N(Cc1cccnc1)C(C(=O)NCc1ccco1)c1ccccc1F (configuration not stated)	1.9	0.1%	.	-1.8	0.0

Later entries:
SMILES	Mtb bLac sens	Mtb growth	YopH inh	RecA intein inh	Arbovirus inh	others
COc1ccc(-c2csc3ncn(-c4ccccc4)c(=O)c23)cc1OC	-6.9	1.4%	.	0.1	-10.3
COc1ccc2cc(C#N)c(SCC(=O)Nc3nonc3C)nc2c1	3.4	.	.	-1.1	.
CCc1noc(C)c1C(=O)N(CC)CC(=O)Nc1ccccc1C(F)(F)F	6.3	.	.	0.7	.
O=C(COc1ccc(-c2nnco2)cc1)Nc1ccc(C(F)(F)F)cc1	7.5	.	.	-1.2	.
CC(C)OC(=O)CSc1nnc(-c2ccc(Cl)cc2)n1N	-19.7	-6.2%	-61.1	-1.4	-1.2	Arbovirus inh repeat=4.1
COc1ccc(Cc2noc(CN(C)CCc3ccccc3)n2)cc1OC	-2.5	3.6%	.	-1.2	.
O=C(O)CSCCC(=O)Nc1ccc(F)cc1	-1.6	-7.8%	-28.8	1.0	-1.1
CCCCn1c(CNC(=O)CCC)nc2ccccc21	-1.3	-4.8%	-9.4	-2.3	1.4	Arbovirus inh repeat=6.6
CC(C)c1ccc2[nH]c3c(c2c1)CCC/C3=N\NC(=O)c1ccncc1	98.3	?	.	2.0	.
CCN(CC)C(=O)c1sc(NC(=O)C(C)C)c(C#N)c1C	-1.4	2.9%	.	-1.3	-6.2
COc1ccc2nc(N=Nc3ccc(N(C)C)cc3)sc2c1	.	.	-10.9	.	-2.8
CC1CN(C(=O)c2ccc(N3CCCCC3)c([N+](=O)[O-])c2)CC(C)O1 (configuration not stated)	4.1	2.6%	-30.6	-0.8	-1.5
COc1ccc(C2=C(SC)CC2=NC(C)(C)C)cc1	-3.2	-0.3%	-13.2	2.5	-3.9
Cc1cccc(NC(=O)CSc2nnc([C@@H](N)Cc3c[nH]c4ccccc34)o2)c1C	0.8	-0.9%	-46.0	2.4	3.4
CC(CN1CCCC1)OC(=O)c1ccc(Br)cc1 (configuration not stated)	2.5	.	.	-1.2	.
CCc1cccc(CC)c1NC(=S)NC(C)c1ccccc1 (configuration not stated)	-4.6	4.7%	-19.1	3.2	-31.6
CCC1CCCCN1CCCNC(=O)CN1C(=O)COc2ccccc21 (configuration not stated)	4.0	.	.	-0.6	.
CC1CC(C)CN(CCCNC(=O)c2csc3c2CCCCC3)C1 (configuration not stated)	1.2	.	.	-1.0	.
CC1(C)C(=O)OC(C(=O)c2ccc(C(C)(C)C)cc2)C(C)(C)C1=O (configuration not stated)	-3.4	-0.3%	-16.4	1.7	9.8
Cc1cccc2cc(-c3ccccc3)c(-c3ccccc3)c[n+]12	1.1	6.6%	-15.2	9.5	7.2
O=C(COC(=O)CNC(=O)c1ccc(Cl)cc1Cl)Nc1ccc(N2CCOCC2)cc1	0.0	-4.1%	.	-7.2	3.6
Cc1ccc(NC(=O)C(C)N2CCc3ccccc3C2)cc1 (configuration not stated)	1.6	.	.	-2.7	.
O=C(N/N=C/c1ccc(Cl)cc1Cl)C(=O)NC1CC1	-2.7	-2.1%	.	-1.3	-1.8
CCOc1ccc(C2=Nn3c(nnc3-c3ccccc3OC)SC2)cc1	95.6	13.5%	-36.0	8.2	-24.3
Cc1ccc(-n2nnnc2SC(C)C(=O)NCC(=O)Nc2ccc(F)c(F)c2F)c(C)c1 (configuration not stated)	4.1	2.9%	2.5	-0.7	-6.9
COc1cccc(NC(=O)N2CCC(C(N)=O)(N3CCCCC3)CC2)c1	-2.4	-9.1%	13.9	-2.2	7.1
CC1CCCCC1NC(=O)CSc1nnc(-c2ccncc2)n1CCCN(C)C (configuration not stated)	2.5	.	.	-0.1	.
COc1ccc(NS(=O)(=O)c2cc(NC(=O)/C=C/c3cc(OC)c(OC)c(OC)c3)ccc2N2CCCCC2)cc1	-2.5	0.6%	-10.6	3.4	-2.5
CCCCCn1c(=O)[nH]c2cc(C(=O)NCCN3CCOCC3)ccc2c1=O	-15.5	.	-11.9	.	1.4	Arbovirus inh repeat=8.9
